# TRPML1 inh: human mucolipin-1 channel inhibition. activity change, negative = inhibition, % (test concentration not listed). TRPML1-inducible cells, Ca2+ dye fluorescence, FDSS; hits give low values; inhibition of EC80 agonist-evoked calcium signal. actives 0.02% (n = 390,000). Q9GZU1; in the data active means activity change below about -50%; inconclusive means about -30% to -50%; inactive means above about -30%;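 further: stimulus is agonist 54-4 at its EC80 concentration; on the % scale 0 is the no-effect control and ±100 the full control effect; compound concentration not given in the record; the text of the record puts the active cut at -80%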
# Target sequence (Q9GZU1 whole entry, looked up): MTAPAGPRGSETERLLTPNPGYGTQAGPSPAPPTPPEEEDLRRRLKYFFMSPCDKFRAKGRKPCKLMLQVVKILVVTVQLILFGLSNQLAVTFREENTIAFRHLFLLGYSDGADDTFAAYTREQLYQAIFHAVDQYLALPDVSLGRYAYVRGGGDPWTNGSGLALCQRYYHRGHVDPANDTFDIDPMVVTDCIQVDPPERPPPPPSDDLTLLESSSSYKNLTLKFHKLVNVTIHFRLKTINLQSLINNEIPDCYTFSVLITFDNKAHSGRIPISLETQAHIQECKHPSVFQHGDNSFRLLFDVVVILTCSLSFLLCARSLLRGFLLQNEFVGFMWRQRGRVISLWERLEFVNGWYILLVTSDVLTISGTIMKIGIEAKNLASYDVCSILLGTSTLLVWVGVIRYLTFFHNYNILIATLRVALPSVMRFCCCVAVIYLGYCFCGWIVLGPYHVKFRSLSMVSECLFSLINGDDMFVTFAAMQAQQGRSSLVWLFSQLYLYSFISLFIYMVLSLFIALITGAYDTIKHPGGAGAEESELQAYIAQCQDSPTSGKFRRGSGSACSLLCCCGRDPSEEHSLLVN
#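 Calcium fluorescence in TRPML1-DL cells induced overnight with Tet: a 110 s read after compound pin addition, then a 110 s antagonist read after challenge with 54-4 at 4 uM final (EC80).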
# D2 agonist: agonists of human D2 dopamine receptor (beta-arrestin); P14416; DiscoveRx PathHunter D2 beta-arrestin, luminescence, 90 min; 100% = 57 uM dopamine signal; activation, % (no concentration beside the values); actives 0.084% (n = 360,000); AID 624465; in the data active = activation above about 40%; inconclusive = about 15% to 40%; inactive = below about 15%; further: compound concentration not given in the record; the text of the record calls up to 30% inactive
# Target sequence (P14416 whole entry, looked up): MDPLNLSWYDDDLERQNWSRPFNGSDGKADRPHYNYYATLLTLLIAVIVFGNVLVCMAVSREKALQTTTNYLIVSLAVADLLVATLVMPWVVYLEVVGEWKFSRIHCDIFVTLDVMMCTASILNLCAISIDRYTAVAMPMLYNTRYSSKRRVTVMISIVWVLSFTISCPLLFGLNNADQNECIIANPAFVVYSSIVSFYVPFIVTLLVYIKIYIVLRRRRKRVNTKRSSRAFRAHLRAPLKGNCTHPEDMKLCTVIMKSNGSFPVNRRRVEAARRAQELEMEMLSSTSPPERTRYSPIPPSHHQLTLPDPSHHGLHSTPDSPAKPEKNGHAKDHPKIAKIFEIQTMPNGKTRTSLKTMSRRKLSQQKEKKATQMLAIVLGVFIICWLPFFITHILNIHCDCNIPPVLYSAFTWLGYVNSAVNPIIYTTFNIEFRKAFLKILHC
#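 Agonist mode: compounds alone added to overnight-plated D2 PathHunter cells for 90 min at 37 C, with 57 uM final dopamine (EC100) defining full response. Beta-arrestin recruitment detected by chemiluminescent reagent, read after 1 h at ambient temperature.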
# D2 potentiator: potentiates the human D2 dopamine receptor allosterically; AID 624464; DiscoveRx D2 beta-arrestin cells, luminescence, 90 min; 100% = 57 uM dopamine signal; actives 0.23% (n = 360,000); potentiation, % (test concentration not listed); P14416; active = potentiation of 50% or more; inconclusive = 30% to 50%; inactive = 30% or less;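 further: compound concentration not given in the record; tested on top of an EC20 dose of dopamine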
#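 D2 cells co-treated with compound plus 50 nM dopamine (EC20) for 90 min at 37 deg C to detect potentiation. Beta-arrestin recruitment was read as enzyme-fragment luminescence after 1 h at ambient temperature. Full response was set by 57 uM dopamine.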
# Six1-Eya2 blk: inhibitors of human Six1/Eya2 interaction | AID 651725 | activity change, % (test concentration not listed) | actives 0.56% (n = 360,000) | AlphaScreen GST-Six1/His-Eya2 binding, biochemical; hits give low values; control for the full effect not named in the record; in the data active = activity change below about -65%; inconclusive = about -30% to -65%; inactive = above about -30%; further: on the % scale 0 is the no-effect control and ±100 the full control effect; compound concentration not given in the record
#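 Homogeneous AlphaScreen proximity assay pairing GST-Six1 with His-tagged Eya2 (added as 5X mix: 250 nM and 500 nM) in 50 mM Tris pH 8.0, 300 mM NaCl, 1 mM TCEP. Glutathione donor and nickel acceptor beads; 1 h, 37 °C, dark.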
# TRPML1 ag: activates the human TRPML1 channel; Q9GZU1; TRPML1-expressing cells, Ca2+ dye fluorescence, FDSS; host cell line not named in the record; reference of the full effect not given here; activation, % (test concentration not listed); actives 0.12% (n = 410,000); AID 624414; in the data active = activation above about 50%; inconclusive = about 30% to 50%; inactive = below about 30%; further: 0% is about no effect; the text of the record puts the active cut at 80%
#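 Agonist activity was taken from a 110 s kinetic Ca2+ dye read on the FDSS after pinning compounds onto TRPML1-DL cells. The cells were seeded at 1,500/well with Tet inducer, incubated about 16 h, then dye-loaded at room temperature.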
# PINK1 modulator: changes PINK1 expression. Potency, µM (doses to about 76.6 µM), for the others: top-dose activation (PINK1 increase), most hits filed as activators. PINK1 immunofluorescence, high-content cytometry, 24 h. actives 0.2% (n = 410,000); active = well fitted activation curve with a large enough effect; inconclusive = small, poorly fitted or top-dose-only effect; inactive = flat fitted curve, though single readings scatter; cell line not stated here;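 further: potency means the concentration at half of the fitted maximal effect; % of control where 0% means no effect; nearly all actives have a fitted effect of over 65% in size; a mitochondrial uncoupler was the plate control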
#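 Decision-based qHTS: stable cells, 24 h exposure to five compound concentrations, CCCP as control. Fixed cells stained for PINK1 plus nuclear, mitochondrial and cell markers, cytometer read.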
# The depositor's hits bear a star; ? = inconclusive; . = not tested or not shown; [ ] = another dose, or the depositor's remark.
SMILES,TRPML1 inh,D2 agonist,D2 potentiator,Six1-Eya2 blk,TRPML1 ag,PINK1 modulator
COc1ccc(NC(C)(C)c2nnnn2-c2c(C)cccc2C)cc1,52,-1.4,-14,-4,1.9,2.2%
CCC1Oc2ccccc2N(CC(=O)NCCCN2CCN(c3ccc(OC)cc3)CC2)C1=O (stereo unspecified),-2,-3.3,-25,-7,0.5,-2.2%
COc1ccc(-c2nn3c(C4CCCCC4)nnc3s2)cc1OC,14,0.9,-5,-1,3.2,-1.7%
CCSc1nnc(NC(=O)CSc2nc3c(cc2C#N)CCCC3)s1,-12,2.5,-6,6,0.2,-1.9%[38.3 µM]
CC(=O)Nc1ccc(CN2CCc3c([nH]c4ccccc34)C2C(C)(C)C)cc1 (stereo unspecified),-18,-4.0,-5,-15,0.0,2.1%
CCCS(=O)(=O)N1CCN(C(=O)COc2ccc(-c3ccccc3)cc2)CC1,-21,3.0,2,3,3.7,?
N#Cc1ccc(C(=O)Nc2cccc(S(=O)(=O)NC3=NCCC3)c2)cc1,15,-3.3,-6,-12,0.4,-0.7%
CCC(C)NC(=O)Cn1c(=O)n(-c2ccc(C)c(C)c2)c(=O)c2c(C)c(C(=O)N(CC)CC)sc21 (stereo unspecified),-10,.,.,.,1.1,1.4%
COc1ccc(C(=O)Nc2ccc(C3CC3(Cl)Cl)cc2)cc1 (stereo unspecified),11,4.1,-5,3,0.9,4.6%
O=C(NCC(=O)N1CCN(c2ccccc2)CC1)c1ccc(Br)o1,2,-1.8,-4,-1,-0.2,1.8%

# Quoted at random: 6 records from the list
SMILES,TRPML1 inh,D2 agonist,D2 potentiator,Six1-Eya2 blk,TRPML1 ag,PINK1 modulator
O=C(NCC(=O)N1CCN(c2ccccc2)CC1)c1ccc(Br)o1,2,-1.8,-4,-1,-0.2,1.8%
CC(=O)Nc1ccc(CN2CCc3c([nH]c4ccccc34)C2C(C)(C)C)cc1 (stereo unspecified),-18,-4.0,-5,-15,0.0,2.1%
CCC1Oc2ccccc2N(CC(=O)NCCCN2CCN(c3ccc(OC)cc3)CC2)C1=O (stereo unspecified),-2,-3.3,-25,-7,0.5,-2.2%
CCSc1nnc(NC(=O)CSc2nc3c(cc2C#N)CCCC3)s1,-12,2.5,-6,6,0.2,-1.9%[38.3 µM]
CCCS(=O)(=O)N1CCN(C(=O)COc2ccc(-c3ccccc3)cc2)CC1,-21,3.0,2,3,3.7,?
COc1ccc(NC(C)(C)c2nnnn2-c2c(C)cccc2C)cc1,52,-1.4,-14,-4,1.9,2.2%

# (more compounds)
SMILES,TRPML1 inh,D2 agonist,D2 potentiator,Six1-Eya2 blk,TRPML1 ag,PINK1 modulator
CC(C)(C)c1ccc(OCC(=O)Nc2ccncc2)c(Br)c1,.,5.0,-17,6,.,8.3%
CCCOC(=O)c1ccc(NC(=O)c2cc(OC)c(OC)c(OC)c2Br)cc1,0,2.0,-2,5,2.3,-0.4%
Cc1cc[n+](-c2nc3ccccc3nc2C(=C=[N-])C#N)cc1,4,1.9,29,-12,0.2,-0.8%
COc1ccccc1CNC(=O)c1cccc(S(=O)(=O)N2CCCC2)c1,-6,-5.6,-28,2,-0.2,3.9%
Cn1c(=O)c2cc(S(=O)(=O)NCCC(=O)Nc3ccc(F)cc3F)ccc2n(C)c1=O,-13,?,-81,?,-0.1,-0.4%
O=C(c1cc([N+](=O)[O-])cc([N+](=O)[O-])c1)N1CCN(C(=O)c2ccco2)CC1,-7,2.4,-6,6,-0.8,-0.1%
O=C(CN(C(=O)CNC(=O)c1cccs1)c1cccc(F)c1)NC1CCCCC1,18,-1.6,5,0,-0.3,2.1%
N#Cc1ccc(OCC(=O)Nc2ccccc2NS(=O)(=O)c2cccs2)cc1,-22,-3.8,-42,-5,1.4,0.5%
COc1ccc(CCNC(=O)c2cc3c(=O)n4ccccc4nc3n2C)cc1,-24,.,.,.,-0.3,0.1%
C#CCNCCS(=O)(=O)N(Cc1ccc(Br)cc1)[C@@H](C)C(=O)O,-2,-3.3,-7,1,-0.1,-0.1%
CCn1c(SCC(=O)c2[nH]c(C)c(C(C)=O)c2C)nnc1-c1ccccc1,-8,-0.7,13,1,-0.8,-0.3%
CCC(C(=O)NCc1ccccc1)n1nc(C)c2sc3ccccc3c2c1=O (stereo unspecified),-14,.,.,.,1.5,0.4%
Cc1ccc(C)c(C(=O)C(C)OC(=O)CN2C(=O)NC3(CC(C)CC(C)(C)C3)C2=O)c1 (stereo unspecified),-1,-1.7,7,0,0.0,4.1%
COc1cccc(C(=O)OCC(=O)Nc2ccc(N3CCOCC3)cc2)c1,28,-3.6,-2,-1,-0.6,0.8%
Cc1ccc(S(=O)(=O)N2C[C@]3(O)C[C@@H]4C(=O)N(c5ccccc5)C(=O)[C@@H]4C[C@]3(OC(=O)Nc3c(C)noc3C)C2)cc1,4,-7.0,-1,4,-0.4,-0.1%
Cc1ccccc1N1CCN(S(=O)(=O)c2nnc(NC(=O)c3ccccc3)s2)CC1,14,.,.,.,2.9,-1.2%
Cc1ccc(C)c(CN2C(=O)c3ccccc3S(=O)c3ccc(C(=O)NCCC4=CCCCC4)cc32)c1 (stereo unspecified),-7,.,.,.,-0.2,-0.6%
COc1ccc(NC(=O)CCC(=O)c2ccc(C(C)C)cc2)cc1,?,-5.4,-3,-1,2.9,1.1%
CSc1ccccc1NC(=O)CN(C)C(=O)Cc1c(F)cccc1Cl,12,-5.1,-9,1,-0.7,0.8%
COC(=O)c1ccccc1OCC(=O)N1CCN(c2ccc(OC)cc2)CC1,7,-1.4,10,-3,-0.3,-3.8%
O=C(NC1CCc2ccccc21)c1cc(COc2c(F)cccc2F)on1 (stereo unspecified),7,3.6,-5,9,2.5,0.7%
FC(F)(F)c1ccccc1C1=CC(c2ccccc2)n2ncnc2N1 (stereo unspecified),0,-1.7,-3,3,2.7,1.9%
CCN(CC)S(=O)(=O)c1ccc(C)c(NC(=S)NNC(=O)C2CC2)c1,5,-5.8,-25,7,-0.2,-2.8%
Cc1cccc(N2C(=O)CSC23C(=O)N(CC(=O)Nc2cccc(Cl)c2)c2ccccc23)c1 (stereo unspecified),1,.,.,.,2.3,-3.8%
COCCN=C1NN=C(c2cc(C)n(CC3CCCO3)c2C)CS1 (stereo unspecified),9,1.3,-1,5,-0.2,7.7%
Cc1nnc(SCc2cc(=O)n3cccc(C)c3n2)s1,20,.,.,.,0.6,14%
Cc1cc2c(c(=O)o1)C1(C(=O)N(CC(=O)O)c3ccccc31)C(C#N)=C(N)O2 (stereo unspecified),-19,2.3,4,-5,4.5,0.8%
CCOC(=O)N1CCN(C(=O)COc2cccc3c2CCN(Cc2cccc(C)c2)C3=O)CC1,-5,1.2,5,-7,2.2,2.5%
O=C(CCC(=O)Nc1ccccc1)N/N=C/c1ccncc1,.,-4.9,5,-3,.,0.7%
Cc1ccsc1C(=O)Nc1cc(C(C)(C)C)nn1-c1ccccc1,15,-0.7,-9,3,5.5,1.0%[38.3 µM]
COc1ccc(/C(N)=N/OC(=O)Cc2ccccc2)cc1,-13,-1.0,0,41,-0.7,3.4%
COc1ccc(Cl)cc1Nc1cc(C)nc2ncnn12,5,-1.9,-25,0,-0.6,-0.4%
O=C(NCc1nnc(SCC(=O)N2CCCC2)o1)c1ccccc1,-9,0.0,-3,4,0.4,2.5%
CC(=O)CC(C)=NCCN=C(C)CC(C)=O,3,-1.4,5,-1,-0.5,-1.1%[38.3 µM]
CC(C)(C)OC(=O)N1CCN(Cc2ccc(F)c(B(O)O)c2)CC1,25,-0.3,.,5,-0.3,-0.1%
O=C1C=CN(Cc2ccccc2)CC1,-9,-3.6,-14,1,-0.2,3.2%
O=C(Nc1ccccc1F)Nc1ccccc1N1CCCCC1,17,3.1,-7,9,0.2,1.7%
COc1ccccc1/C=N/NC(=O)CCSc1ccccc1,-3,1.4,-4,-1,1.1,-0.1%
O=C(Nc1ccc2c(c1)OCO2)C1CC1,11,2.1,-6,-3,0.2,-2.7%
COc1ccc(NC(=O)COC(=O)c2ccc(S(=O)(=O)N3CC(C)CC(C)C3)cc2)cc1OC (stereo unspecified),-12,-2.1,-2,4,-0.3,1.2%
COc1ccc(OCc2cc(C(=O)N3CCCC(OC)C3)no2)c2ccccc12 (stereo unspecified),-16,6.3,6,-14,-0.1,-0.7%
CNC(=O)CSc1nnc(C2CC2)n1-c1ccccc1,-2,-7.0,-2,-1,0.7,-0.7%
COc1ccc(Cn2c(-c3ccco3)nc3oc4ccccc4c(=O)c3c2=O)cc1,9,-4.5,-2,0,2.1,-0.1%
CC(=O)Nc1nc(CCC(C)C)cc2c1c(=O)oc1ccccc12,12,-2.4,-3,13,-1.0,1.2%
CC(=O)Nc1ccc(NC(=O)C(F)(F)F)cc1,-2,-3.3,-10,1,-0.4,20%[38.3 µM]
C=C(C)Cn1c(SCCN2CCOCC2)nc2c1c(=O)[nH]c(=O)n2C,-5,-3.4,-2,7,-0.7,-0.8%
O=C(NCCC(=O)N1CCN(c2ccccc2O)CC1)c1ccc(Cl)cc1,-11,-0.1,-1,-3,-0.8,2.8%
COc1ccc(-c2csc(N3CCOCC3)n2)cc1OC,34,-1.0,-5,-11,-0.4,4.6%
CCc1ccc(NC(=O)c2ccc(CN3C(=O)C(C)=C(c4ccc(C)cc4)S3(=O)=O)cc2)cc1,19,.,.,.,0.5,2.3%
C=CCOc1c(Br)cc(CNc2ccc3[nH]c(=O)[nH]c3c2)cc1OCC,11,7.5,1,?,-0.3,8.1%

# Further compounds follow.
SMILES,TRPML1 inh,D2 agonist,D2 potentiator,Six1-Eya2 blk,TRPML1 ag,PINK1 modulator
COc1ccc(CN(C)C(=O)c2ccc(NC(=O)CC3SC(N4CCCC4)=NC3=O)cc2)c(OC)c1OC (stereo unspecified),-8,-6.4,-19,-2,0.0,3.0%
CCCn1cnc2c(SCc3ccc(Cl)cc3)nc(N)nc21,11,2.5,-4,-2,0.4,6.3%
CN(C(=O)c1ccc(NC(=O)Cc2ccc(NC(=O)C3CCCN(C(=O)C4CCCCC4)C3)cc2)cc1)C1CC1 (stereo unspecified),-11,1.2,-22,6,-0.8,0.3%
CCc1nn(CC(=O)N2CCN(c3ccc(OC)cc3)CC2)c(=O)c2cc3occc3n12,-11,-2.9,-6,-2,-1.2,-0.2%
COC(=O)[C@@H]1[C@@H](C#N)C2(c3ccccc3-c3ccccc32)N(c2ccc(Cl)cc2)N1C#N,-23,-7.3,-13,?,0.2,-2.1%
CCn1c2ccccc2c2cc(NC(=O)C(C)C)ccc21,0,-1.4,-7,1,-0.5,6.5%[38.3 µM]
CCn1c(C)nc2cc(C(=O)NNC(=S)Nc3ccccc3OC)ccc21,1,-5.6,-2,13,-0.1,-1.4%
CC(OC(=O)CCNS(=O)(=O)c1ccccc1)C(=O)Nc1ccc(S(=O)(=O)N2CCCCC2)cc1 (stereo unspecified),12,-1.5,-10,-3,0.3,4.2%
CCc1ccc(NCc2cc3cc(OC)c(OC)cc3n(CC(=O)Nc3cc(C)ccc3C)c2=O)cc1,-6,.,.,.,1.5,-1.2%

# Assay outcomes as filed in PubChem.
